FGF22 binding = binders of recombinant human FGF22 by thermal shift | AID 651658 | SYPRO orange fluorescence; percent of sucrose octasulfate shift, DMSO zero | Q9HCT0 | 1.5% of 340,000 active | calls only at 9.99 µM;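 active = melting point raised past a set limit in the mean and every replicate; three in four hits are not shown here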
Target sequence (Q9HCT0 whole entry, looked up): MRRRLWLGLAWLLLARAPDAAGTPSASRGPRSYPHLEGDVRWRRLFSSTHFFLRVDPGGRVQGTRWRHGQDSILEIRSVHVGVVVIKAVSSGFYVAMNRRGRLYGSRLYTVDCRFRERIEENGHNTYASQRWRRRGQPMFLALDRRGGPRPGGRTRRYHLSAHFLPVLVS
HNF4A DNA FP = change in binding of human HNF4 alpha to DNA; HNF4a-FITC DNA binding, fluorescence polarization, 1 h; P41235; 0.3% of 360,000 active; activity change, % at 10 µM; AID 1224865; in the data active = activity change above about 30%, passing the limit was not always enough;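 also: controls were the assay level and a saturating level of protein; the project sought stronger binding though the title names inhibitors; some compounds called inactive have numbers as strong as hits; positive values seem to mean higher polarization but the record does not say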
Target sequence (P41235 whole entry, looked up): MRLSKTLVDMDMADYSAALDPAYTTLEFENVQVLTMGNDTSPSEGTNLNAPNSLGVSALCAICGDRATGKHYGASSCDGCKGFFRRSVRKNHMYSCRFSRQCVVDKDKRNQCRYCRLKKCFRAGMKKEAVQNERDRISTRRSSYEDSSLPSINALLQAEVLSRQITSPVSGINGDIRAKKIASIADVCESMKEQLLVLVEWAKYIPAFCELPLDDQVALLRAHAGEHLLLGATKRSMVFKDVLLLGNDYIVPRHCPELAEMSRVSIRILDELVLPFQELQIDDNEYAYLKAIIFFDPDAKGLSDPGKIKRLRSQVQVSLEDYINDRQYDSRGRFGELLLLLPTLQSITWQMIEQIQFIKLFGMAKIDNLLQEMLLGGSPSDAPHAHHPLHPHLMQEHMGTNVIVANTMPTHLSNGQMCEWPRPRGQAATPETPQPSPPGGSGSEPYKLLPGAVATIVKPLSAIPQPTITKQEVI
Ecoli growth = inhibitors of Escherichia coli growth; OD600, 23 h; hits give low values; OD600 absorbance (test concentration not listed); 0.21% of 330,000 active; AID 1053175;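 active = OD600 absorbance below the run mean of sample wells minus 3.6 SD, in any replicate, cut at about 0.56 in these data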;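 also: stock transfer was 300 nL into about 60 µL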
LANA-H2B inh = blocks KSHV LANA binding to histone H2A/H2B; 0.6% of 320,000 active; inhibition, % (no concentration beside the values); AID 2629; Q9QR71; cell-free LANA-H2A/H2B peptide, fluorescence polarization; in the data active = inhibition mostly above about 10%, no sharp cut-off; inactive = mostly below about 6.7%;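 also: stock transfer was 7.5 nL into about 10 µL; 0% = median of vehicle wells and 100% = median of positive control wells; one replicate is shown; the record names a cut of 25% in any replicate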
UCH37 inh = blocks the human deubiquitinase UCH37 | Q9Y5K5 | purified proteasome/UCH37, Ub-AMC cleavage fluorescence | inhibition, % (no concentration beside the values) | 0.33% of 330,000 active;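 active = mean of two replicates above 20%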;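 also: 0% = compound-free wells with enzyme and 100% = wells lacking proteasome; stock transfer was 100 nL into about 20 µL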
Target sequence (Q9Y5K5 whole entry, looked up): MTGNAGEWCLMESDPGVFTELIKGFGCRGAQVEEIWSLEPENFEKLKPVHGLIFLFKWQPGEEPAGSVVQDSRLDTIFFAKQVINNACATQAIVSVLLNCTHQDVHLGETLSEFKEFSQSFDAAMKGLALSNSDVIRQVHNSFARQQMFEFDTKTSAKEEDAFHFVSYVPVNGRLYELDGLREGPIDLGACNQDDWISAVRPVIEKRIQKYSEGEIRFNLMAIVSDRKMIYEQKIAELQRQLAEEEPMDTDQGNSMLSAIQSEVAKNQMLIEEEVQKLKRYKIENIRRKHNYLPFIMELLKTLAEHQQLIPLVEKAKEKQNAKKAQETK
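system = Proteasome-associated human UCH37 deubiquitinase | amount = 0.15 nM proteasome as dispensed | medium = pH 7.4 Tris-HCl (50 mM) with ovalbumin, ATP-MgCl2, DTT | incubation = 30 min preincubation with enzyme, 25 min cleavage at room temperature | detection = AMC fluorescence 355/460 nm | read-out basis = percent inhibition | controls = no-proteasome and no-compound wells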
ALR H2O2 inh = inhibitors of human sulfhydryl oxidase ALR; purified ALR, DTT oxidation, H2O2 HRP-luminol luminescence; P55789; inhibition, % (test concentration not listed); 3.8% of 290,000 active;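 active = mean and each replicate at 75% or more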;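 also: stock transfer was 7.5 nL into about 7.5 µL; 0% = neutral wells and 100% = wells with inactivated enzyme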
B2AR ag = activates human beta-2 adrenergic receptor causing internalization; Am2.2-beta2AR cells, FAP receptor internalization, flow cytometry; reference of the scale not given here; 0.43% of 340,000 active; P07550; response, % (no concentration beside the values);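 active = response above a set limit, near 3 SD of response in nonfluorescent compounds, cut at about 42% in these data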;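 also: stock transfer was 100 nL into about 11 µL; a reference agonist was the positive control; negative values mostly stem from fluorescent compounds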
* = called active by the depositor; i = inactive; x = not tested or not shown. Some of the compounds tested (hit frequency here may not be typical).

Values run as follows: FGF22 binding, HNF4A DNA FP, Ecoli growth, LANA-H2B inh, UCH37 inh, ALR H2O2 inh, B2AR ag
> OCC1CCN(Cc2nc(Cc3ccccc3Cl)no2)CC1
→ i, 2.1, 0.684, -2.9, 1.2, -5.5, 2.9
> Cc1ccc(-c2csc(Cc3nc(-c4ccc5c(c4)CCC(=O)N5)cs3)n2)cc1
→ i, 13.8, 0.68, -3.2, 0.9, -15.1, 16.0
> Cc1cccc(C(=O)NC(C(=O)Nc2nc(-c3ccccn3)cs2)C(C)C)c1 (stereo unspecified)
→ i, 2.2, 0.657, -4.9, -1.7, -21.5, -1.2
> Cc1nn(CCO)c2nc(-c3cccs3)cc(C(F)(F)F)c12
→ i, 1.4, 0.676, 1.2, -343.6, -6.8, -1.3
> CC(C)NC(=O)CSc1nnc(C2CC2)n1-c1ccccc1
→ x, 2.3, 0.729, -1.8, 2.5, -21.1, -7.5
> COc1cccc(Cn2c(=O)c3ccccc3n3nc(C)cc23)c1
→ x, 3.6, 0.72, x, -1.9, x, -1.7
> CCOc1ccc(NC(=O)CN2C(=O)COc3ccc(Cl)cc32)cc1
→ i, 3.9, 0.804, 1.5, -0.8, x, 4.3
> COc1cc(C)c(NC(=O)C2CCN(S(=O)(=O)c3cccs3)CC2)cc1OC
→ i, 3.4, 0.688, -0.8, 2.3, -19.3, 1.3
> Cc1cc(OC(C)C(=O)N2C[C@H]3C[C@@H](C2)c2cccc(=O)n2C3)c2c(C)c(C)c(=O)oc2c1 (stereo partly specified)
→ i, 0.9, 0.718, -6.4, -14.6, x, -0.3
> CC(C#Cc1c([C@@H](C)Oc2ccccc2)nnn1Cc1ccccc1)Oc1ccccc1 (stereo partly specified)
→ i, -2.6, x, 3.9, -1.7, 0.7, 0.3
> FC(F)(F)c1cc(Cl)c2nnc(C(F)(F)Cl)n2c1
→ i, -0.4, 0.656, -0.5, 2.0, 0.0, 3.9
> COc1ccc(NC(=O)CN2C(=O)CSC(C)C2=O)c(OC)c1 (stereo unspecified)
→ i, 1.7, 0.713, -4.5, -2.1, -6.8, 1.4
> C[C@H]1CC[C@]2(O[C@@H](CCO)C[C@@H](O)[C@@H]2O)O1
→ i, -2.2, x, 2.0, 1.3, 0.2, 6.3
> Nc1nc[nH]c(=O)c1N=Cc1ccccc1
→ i, 1.1, 0.645, 6.1, -1.6, x, 1.4
> Cn1nccc1C(=O)N1CCc2c([nH]c3ccccc23)C1c1ccc(F)cc1 (stereo unspecified)
→ i, -4.6, 0.669, 2.9, 1.7, -6.3, -3.3
> N=c1c(S(=O)(=O)c2ccccc2)cc2c(=O)n3ccccc3nc2n1C1CCCCC1
→ i, 5.5, x, x, x, x, -5.3
> CCOC(=O)N1CCN=C1SCc1ccc(Cl)c(Cl)c1
→ i, 1.2, 0.689, -0.6, 3.0, 98.6*, -3.3
> O=C(COc1ccc(Cl)cc1[N+](=O)[O-])N/N=C/c1cccs1
→ i, 3.6, x, 3.4, x, -5.8, -26.3
> CC(/C=N/NC(=O)CN1CCN(Cc2ccc(Cl)cc2)CC1)=C\c1ccco1
→ i, 0.2, x, -2.1, x, -17.3, -2.1
> NC(=O)C1CCN(c2nc(-c3ccc(F)cc3)cs2)CC1
→ i, -0.9, 0.667, -4.1, 0.2, 1.5, 1.5
> CC(C)=CCN1CCN(Cc2cn(C(C)C)c3ccccc23)CC1CCO (stereo unspecified)
→ i, -4.4, 0.7, -4.2, 6.1, -7.9, 8.0
> Oc1ccc(-c2c(-c3ccsc3)sc3ccccc23)cc1
→ i, -0.4, x, 2.9, 0.0, 4.2, -6.6
> CC(OC(=O)c1ccc(-n2cnnn2)cc1)C(=O)N(C)c1ccccc1 (stereo unspecified)
→ i, 1.7, 0.697, x, 1.8, x, 2.7
> O=C(CCC(=O)N1CCOc2ccccc21)NCCc1ccccc1
→ i, 1.1, 0.667, 0.3, 1.8, -18.4, -6.2
> CC(C)OC(=O)c1cccnc1SCc1cc(=O)n2ccccc2n1
→ x, 1.5, 0.722, 0.1, -9.8, 7.1, -12.4
> CC1=NOC(=O)/C1=C/c1ccc(O)c(Cl)c1
→ i, 2.5, 0.683, -5.8, 1.9, x, 41.3
> O=C(CSc1n[nH]c(-c2ccccc2O)n1)NC1CCCCC1
→ i, -2.5, 0.634, 0.7, 0.7, 25.7, -10.4
> COc1ccc([C@H]2CC(=O)c3c(O)cc(O)cc3O2)cc1O
→ i, 0.1, 0.632, -1.5, 7.8, 30.6, 4.6
> COc1ccc(OC)c(-c2csc(N(CC3CCCO3)C(=O)Cc3ccccc3)n2)c1 (stereo unspecified)
→ i, -3.0, 0.71, 1.2, -0.2, 4.7, 6.4
> CC1=NN(C(=O)CSCc2ccccc2)C(O)(c2ccc(Cl)cc2)C1 (stereo unspecified)
→ i, 1.4, 0.64, -4.6, 6.6, 20.9, -0.2
> Cc1ccc(/C=N/N2CCN(C3c4ccccc4-c4ccccc43)CC2)s1
→ i, -0.1, x, 0.4, x, -2.6, 6.0
> COc1cccc(C(=O)N2CCOCC2)c1
→ i, 1.3, 0.692, -5.6, 1.4, -12.9, -0.9
> O=C(CN1c2cccc3cccc(c23)S1(=O)=O)NC1CCCCC1
→ i, -4.9, 0.711, -1.5, -24.7, -4.8, -2.0
> N#CCCN(Cc1ccccc1)C(=S)NC(=O)c1ccccc1
→ x, 4.3, 0.684, 3.7, 4.3, 98.4*, -8.6
> COc1cc(/C=C/CO)cc(OC)c1OC/C=C(\C)CCC=C(C)C
→ i, 0.1, 0.74, 4.6, 8.7, 25.2, -8.6
> Cc1cc(C(C)(C)C)cc(C)c1S(=O)(=O)N1CCN(C(=O)c2cc([N+](=O)[O-])c[nH]c2=O)CC1
→ i, 0.3, 0.657, -1.3, 6.1, 5.7, 5.6
> CCOC(=O)c1ccc2c(c1)N(CC#N)C(=O)C(C)(C)O2
→ i, -1.9, 0.671, 2.7, 0.0, -5.0, 14.5
> N#Cc1ccc(Cn2c(-c3ccc(F)cc3)noc2=O)cc1
→ i, -0.9, x, -1.3, x, -8.2, -3.5
> Cc1cc(NC(=O)c2ocnc2C)no1
→ x, 9.2, 0.745, -0.2, 1.1, 0.8, -4.9
> Cc1ccccc1/C=C1\Oc2ccccc2C1=O
→ i, -2.7, x, 56.6*, x, 4.3, -1.4
> O=[N+]([O-])c1cc([N+](=O)[O-])c(Oc2ccc(Br)cc2Br)cc1NN1CCCCC1
→ i, 2.4, 0.684, -0.2, 2.5, 0.7, -0.1
> O=C(CN1C2=NCCCN2c2ccccc21)c1cccs1
→ x, -1.9, 0.672, -2.6, 3.5, x, -0.4
> COc1cc2c(cc1NC(=O)c1cccnc1)CCCC2
→ x, -1.4, 0.654, -3.3, 2.4, -8.2, 11.7
> COC(=O)C(CC(=O)c1ccc(C)cc1)n1cccn1 (stereo unspecified)
→ i, 3.9, 0.674, 0.4, 0.9, -0.5, 30.6
> COc1cc2nc(N3CCN(C(=O)OCc4ccccc4)[C@H](C(=O)NC(C)(C)C)C3)nc(N)c2cc1OC
→ i, 2.2, x, 0.9, -41.8, x, 9.8
> O=C(NNC(=O)C1CCN(Cc2cccc(F)c2)CC1)c1cccs1
→ i, 5.9, 0.67, 4.9, 2.0, -13.5, 23.3
> COc1ccc(NC(=O)c2cc(C)n(Cc3cccs3)c2C)cc1
→ i, 5.6, 0.667, -3.7, 3.3, 0.6, 0.4
> COc1cc(NC(=O)c2ccccc2F)ccc1NC(=O)c1ccccc1Cl
→ i, 3.5, 0.663, 3.8, 6.6, -2.5, -1.7
> COc1ccccc1CNS(=O)(=O)c1cc(C(=O)N(C)Cc2cccnc2)c(Cl)cc1Cl
→ i, 4.0, 0.672, x, -0.7, x, -5.9
> COc1cc(SC)ccc1C(=O)Nc1ccc2ncccc2c1
→ i, 6.0, 0.673, -6.9, -4.6, -3.3, 5.6

Other structures follow.
Values run as follows: FGF22 binding, HNF4A DNA FP, Ecoli growth, LANA-H2B inh, UCH37 inh, ALR H2O2 inh, B2AR ag
> O=C(O)C1CSC2(c3ccc4c(c3)OCCO4)CCC(=O)N12 (stereo unspecified)
→ x, -1.8, 0.713, 1.9, 5.1, -7.3, -5.2
> Cc1cc(NC(=O)c2cc(Cl)ccc2Cl)no1
→ x, -0.7, 0.71, -9.7, -1.1, 2.4, -7.1
> CS(=O)(=O)N(CC(=O)NCCSCc1ccccc1)c1ccc2c(c1)OCO2
→ i, -1.3, 0.681, -4.0, 3.7, -2.4, -5.6
> Cc1oc(/N=C/c2cccc3ccccc23)c(C#N)c1C
→ i, -7.4, x, 2.0, x, -16.5, 0.1
> COc1ccc(CCNS(=O)(=O)c2cc3c4c(c2)C(C)C(=O)N4CCC3)cc1OC (stereo unspecified)
→ i, 1.2, 0.685, 1.7, -0.3, -5.7, 4.4
> Cc1cc(C)n(-c2ccc(C(=O)NCC(=O)Nc3cc(Cl)ccc3Cl)cc2)n1
→ i, 5.1, 0.665, -0.5, -2.2, -10.6, -12.5
> Cc1ccc(/C=C2\SC(=S)N(NS(=O)(=O)c3ccc(C)cc3)C2=O)cc1
→ i, 0.6, 0.688, -2.1, 10.6, -0.7, -11.3
> Cc1ccc(C2OCC3(CO2)COC(c2ccc(C)cc2)OC3)cc1 (stereo unspecified)
→ i, -0.6, 0.72, -4.9, 3.2, -6.9, 6.1
> Cc1cc(C)c(NC(=S)NC(=O)c2ccc(-c3ccccc3)cc2)c(C)c1
→ i, 2.6, 0.729, 6.4, 7.6, x, 11.9
> O=C(NNC1=Nc2cccc3cccc1c23)c1ccc(Br)cc1
→ i, 2.3, 0.677, 1.9, -21.1, -13.8, 11.6
> CCOC(=O)/C(C(C)=O)=C1/OC(=O)c2ccccc21
→ i, 3.8, 0.703, -1.2, 1.6, -0.9, 7.0
> O=C(CSc1ccccc1F)Nc1ccc2c(c1)OCO2
→ i, -2.1, 0.678, 1.4, 4.1, -5.1, 2.4
> O=C(Nc1cccc2c1CCCC2)c1cc([N+](=O)[O-])cc([N+](=O)[O-])c1
→ i, -2.0, 0.675, -1.7, 0.9, -6.0, 0.3
> NS(=O)(=O)c1ccc(CCNC(=O)CCc2nc3ccccc3s2)cc1
→ i, 3.2, 0.672, 0.8, 0.8, 3.6, -2.6
> COc1cc(OC)cc(C(=O)Nc2ccc([N+](=O)[O-])cn2)c1
→ x, -2.1, 0.712, -2.7, 5.3, x, 3.0
> O=C(NCc1ccccn1)c1cc2ccccc2oc1=O
→ x, 0.8, 0.737, -1.6, -22.1, x, -5.7
> CCOC(=O)NCCc1c(C)nc2c(c(C)nn2C(C)(C)C)c1C
→ x, 1.9, 0.676, -0.9, 1.3, 2.8, -12.1
> CC/C(=N\NC(=O)C1CCCC1)c1ccc(Br)cc1
→ i, 1.8, x, -0.8, x, -8.2, -9.8
> COc1cccc(OC)c1OCCNC(C)(C)C
→ x, 0.5, 0.779, -10.4, 0.2, -3.1, 0.0
> Cc1ccc(C)c(S(=O)(=O)N2CCCOC2CNC(=O)C(=O)NCCc2ccccc2)c1 (stereo unspecified)
→ i, -2.7, 0.701, -2.7, 2.2, 3.1, 7.0
> COC(=O)CCc1nc2ccccc2[nH]c1=O
→ x, -2.3, 0.704, 1.7, -44.4, -3.0, 1.7
> Cc1ccc2c(cnn2C(=O)CCCC(=O)NCc2cccc(F)c2)c1
→ i, -1.7, 0.692, 2.7, -0.2, 4.0, 38.8
